KCNQ2 pot = enhances the rat KCNQ2 potassium channel; B-score at 10 µM; CHO-K1 KCNQ2, FluxOR thallium flux fluorescence; active compounds read high; 310,000 tested, 0.54% active;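 active means fluorescence ratio B-score at least 3 SD of library B-scores, with initial fluorescence B-score within 3 SD, cut at about 5.3 in these data; same plate scores as AID 2156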;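 further: B-score of peak minus minimum over baseline fluorescence ratio after K+ and Tl+ stimulus; positive B-score means potentiation of KCNQ2 with more thallium influx and brighter signal; only the inactives scoring about 0 or higher are listed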
Target sequence (O88943 whole entry, looked up): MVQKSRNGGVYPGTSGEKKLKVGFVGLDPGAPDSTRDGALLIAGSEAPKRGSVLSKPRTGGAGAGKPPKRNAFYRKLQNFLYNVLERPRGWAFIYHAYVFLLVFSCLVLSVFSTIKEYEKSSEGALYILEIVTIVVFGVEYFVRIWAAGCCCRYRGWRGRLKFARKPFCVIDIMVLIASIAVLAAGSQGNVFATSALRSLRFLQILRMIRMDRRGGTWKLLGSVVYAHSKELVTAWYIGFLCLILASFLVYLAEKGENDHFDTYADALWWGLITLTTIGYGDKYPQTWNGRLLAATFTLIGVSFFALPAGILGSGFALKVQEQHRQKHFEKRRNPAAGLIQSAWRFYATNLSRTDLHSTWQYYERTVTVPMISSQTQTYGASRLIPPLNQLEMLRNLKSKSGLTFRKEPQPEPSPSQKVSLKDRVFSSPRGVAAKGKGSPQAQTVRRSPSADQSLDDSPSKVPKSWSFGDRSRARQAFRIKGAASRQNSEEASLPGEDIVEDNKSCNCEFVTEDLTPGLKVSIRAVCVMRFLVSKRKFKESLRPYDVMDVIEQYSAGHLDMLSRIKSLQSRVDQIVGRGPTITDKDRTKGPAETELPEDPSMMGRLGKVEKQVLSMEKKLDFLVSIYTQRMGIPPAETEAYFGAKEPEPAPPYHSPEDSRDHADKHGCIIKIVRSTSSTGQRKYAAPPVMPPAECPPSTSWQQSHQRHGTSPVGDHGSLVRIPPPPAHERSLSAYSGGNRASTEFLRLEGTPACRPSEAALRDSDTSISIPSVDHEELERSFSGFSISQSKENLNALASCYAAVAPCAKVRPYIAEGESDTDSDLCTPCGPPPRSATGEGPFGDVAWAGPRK
KCNQ2 pot baseline = second read-out of KCNQ2 pot, no call of its own (marks repeat the call); B-score; compound at 10 µM; measured here: initial fluorescence intensity artifact check;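 brightness before thallium and not channel activity; 0 = typical well and far values either way flag optical interference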
Active calls of the source: *; . = no result given. Only part of the results is shown; rates above refer to the full screens.

SMILES	KCNQ2 pot	KCNQ2 pot baseline
O=C(Cn1nnc(-c2ccccc2NC(=O)c2ccco2)n1)NC1CCCCC1	0.57	0.79
C=CCc1ccc(OCCCNCc2ccccc2)c(OC)c1	3.3	0.67
O=C(O)/C=C\C(=O)Nc1ccc(N2CCN(c3ccc(Cl)c(Cl)c3)CC2)cc1	0.54	1.8
N#Cc1ccc(OCC(=O)N/N=C(\CCC(=O)O)c2cccs2)cc1	0.36	-1.5
O=C(CSc1nnc(Cc2ccccc2)o1)NC1CC2CCC1C2 (stereo not drawn)	0.88	0.82
C1=C(CCNCC2CC2)CCCC1	1.2	0.38
CCn1c(-c2cc(Br)ccc2O)n[nH]c1=S	0.04	0.41
N#CCc1nc2ccccc2c(=O)[nH]1	2.2	0.23
c1ccc(OCCCc2nc(-c3ccncc3)no2)cc1	0.54	-0.86
Cc1ccc(SCC(=O)OCn2nnc3ccccc3c2=O)cc1C	0.35	0.13
CN(CCc1ccccc1)C1CCCN(S(=O)(=O)CC(F)(F)F)C1 (stereo not drawn)	0.33	-0.24
O=C(NCCc1cccs1)c1ccc(Cl)cc1	0.45	-0.3
CCC(C)(C)NC(=O)C(c1cccc(OC)c1OC)N(CCOC)C(=O)CCC(=O)Nc1cc(C)on1 (stereo not drawn)	0.42	-0.48
CCc1ccc2c(c1)c(N=NC1=NC(=O)CS1)c(O)n2C	5.8*	0.01*
FC(F)(F)c1nc(Sc2ncccc2C(F)(F)F)n[nH]1	0.75	-0.08
COc1cccc(NC=C2C(=O)OC(C)(C)OC2=O)c1	1.1	-0.96
CSc1ccccc1NC(=O)C(C)N1C(=O)c2ccccc2S1(=O)=O (stereo not drawn)	0.5	0.77
CC1(C)OC(=O)C(=CNc2cccc(C(=O)O)c2)C(=O)O1	2	-0.73
CCCCn1c(SC(C)C(N)=O)nc2cc(C(=O)OC)ccc2c1=O (stereo not drawn)	0.7	1.4
O=C1C2C3C=CC(C3)C2C(=O)N1CCN1CCN(S(=O)(=O)c2ccc3ccccc3c2)CC1 (stereo not drawn)	0.2	0.4

Full records, looked up by structure. Screens in order: KCNQ2 pot	KCNQ2 pot baseline
CCn1c(-c2cc(Br)ccc2O)n[nH]c1=S across the screens: 0.04	0.41
O=C(NCCc1cccs1)c1ccc(Cl)cc1 across the screens: 0.45	-0.3
N#CCc1nc2ccccc2c(=O)[nH]1 across the screens: 2.2	0.23

The listing continues.
SMILES	KCNQ2 pot	KCNQ2 pot baseline
CSc1[nH]c(=O)c(C(=O)O)cc1C#N	1.2	-0.39
CCCn1ncc(CN2CCN(Cc3ccsc3)C(CCO)C2)c1C (stereo not drawn)	0.94	-0.46
Cn1c(=O)c(C(=O)COc2ccc(C#N)cc2)c(N)n(Cc2ccccc2)c1=O	0.92	-3.6
Cc1ccc(N2CCN(C(=O)N3CCCC3)CC2)cc1C	0.76	1.8
C=CCSc1nc(=O)n2cccc(C)c2n1	0.59	0.58
Cc1ccc(-n2cc(-c3ccc([N+](=O)[O-])cc3)[nH]c2=S)c(C)c1	2.4	0.46
Cc1cc2c(c(=O)n1Cc1ccco1)C(c1ccccc1)C(C#N)=C(N)O2 (stereo not drawn)	0.73	-0.76
CCCN1C(=O)c2ccc(C(=O)Nc3cc(C)on3)cc2C1=O	2.2	-0.05
COc1ccccc1CNC(=O)C[n+]1ccccc1	0.28	1.1
CN(CCc1ccccn1)C(=O)Nc1ccc(C(C)(C)C)cc1	0.74	-1.9
Clc1ccccc1-c1nnc(-c2ccc3c(c2)OCO3)o1	0.66	0.34
CC(C)Cn1c(N)c(C=O)c(=O)[nH]c1=O	0.09	1.7
Cc1ccc(CNC(=O)C(=O)c2cn(CC(=O)N3CCOCC3)c3ccccc23)cc1	1.7	-0.06
COC(=O)c1cc2sc(Cl)cc2n1CC(=O)N1CCCc2ccccc21	1.8	-0.1
CC(C)c1ccc(NC(=O)c2cnn(-c3ccccc3)c2NC(=O)c2ccco2)cc1	0.01	-1.8
Nc1nc(C2CCCCC2)cs1	0.14	-1.2
CCc1ccccc1N=C1SCC(=O)N1C	1.2	-3.4
CSc1ncccc1C(=O)OCC(=O)c1cccc(Br)c1	1.7	0.21
O=C1OC(c2ccco2)=N/C1=C\c1ccc(-c2cccc(C(F)(F)F)c2)o1	0.04	0.57
Cc1cc(NC(=O)c2ccc(Cl)cc2)ccc1NC(=O)c1ccccc1Cl	0.53	1.6

Arranged by SMILES length (smallest number first): part of the list above
SMILES	KCNQ2 pot	KCNQ2 pot baseline
CCc1ccccc1N=C1SCC(=O)N1C	1.2	-3.4
COc1ccccc1CNC(=O)C[n+]1ccccc1	0.28	1.1
CCCn1ncc(CN2CCN(Cc3ccsc3)C(CCO)C2)c1C (stereo not drawn)	0.94	-0.46

Next records
SMILES	KCNQ2 pot	KCNQ2 pot baseline
COCCN1C(=O)N[C@@H](CCc2ccccc2)[C@H](C(=O)OC)[C@H]1C	1.3	-1.1
C=CCc1ccc(OCCCCNC2CCCC2)c(OC)c1	2.4	-0.02
CCC1CCCCN1S(=O)(=O)c1ccc(NC(=O)C2CCN(C(=O)c3ccco3)CC2)cc1 (stereo not drawn)	2	0.46
COc1ccc(CNC(=O)Cn2cccc2C(=O)c2ccccc2)cc1	0.36	1.9
C=CCn1c(SCC(=O)NC2CCS(=O)(=O)C2)nc2scc(C3CC3)c2c1=O (stereo not drawn)	1.2	-0.16
O=C(Nc1c2c(nn1-c1ccccc1)CS(=O)(=O)C2)c1ccccc1C(F)(F)F	1.2	1.3
COc1ccccc1-n1c(SCC(=O)Nc2ccc(C)cc2)nc(O)cc1=O	0.85	-2.6
CCn1nc(C(=O)OCc2cccc(S(=O)(=O)N(C)C)c2)c2ccccc2c1=O	1.9	-1.8
COCCNC(=O)C(=O)NCCN1CCOCC1	0.25	0.9
CN(C(=O)Cc1c(C(=O)O)n(C)c2ccccc12)c1ccc(F)cc1	1.3	0.48
CCN(CC)CCNC(=O)CCc1nnc2ccc(N3CCC(C)CC3)nn12	1	0.68
COc1ccc(/C=C2/SC(=O)N(CCNC(=O)C3COc4ccccc4O3)C2=O)cc1 (stereo not drawn)	1.4	0.01
CC1(c2ccccc2Cl)NC(=O)N(CC(=O)NC(=O)NCc2ccco2)C1=O (stereo not drawn)	12*	0.54*
C(=N\Nc1ccccn1)/c1ccc2c(c1)OCCO2	0.09	0.07
O=C(CSc1nnc(CNC(=O)c2cccs2)o1)Nc1cccc(C(F)(F)F)c1	0.72	0.06
O=C(O)COc1ccc(Br)cc1/C=C1/SC(=O)N(CC(=O)N2CCCC2)C1=O	0.92	-0.81
CN(C)C(=O)c1ccc(NC(=O)COC(=O)C2=COCCO2)cc1	1.1	2.5
COc1ccc(NC(=O)COC(=O)Cn2nnc3ccccc32)cc1	0.52	-1.7
COc1cc(OC)cc(C(=O)NCC(=O)N2CCN(c3ccc(O)cc3)CC2)c1	0.51	-0.06
COc1cc2c(cc1OC)CN(CC(=O)Nc1ccc(F)cc1F)CC2	1.3	-0.81
O=C(CCN1C(=O)c2ccccc2C1=O)Nc1ccc2c(c1)OCCO2	0.32	0.21
O=S(=O)([N-]c1nc2ccccc2nc1-[n+]1ccccc1)c1ccc(Cl)cc1	0.25	0.81
COCc1cc(C)n(CC(=O)NCc2ccccc2)c(=O)c1C#N	1.2	0.28
Cc1cc(OCc2cc(C(=O)N3CCN(C)C(=O)[C@@H]3C)no2)cc(C)c1Cl	2.9	-0.54
CC(C)Oc1ccc(CNC(=O)CC(c2ccccc2)c2cc(Cl)ccc2O)cc1 (stereo not drawn)	15*	-1*
COc1ccccc1N(CC(=O)NC(C)(C)C)C(=O)C1CSC(=O)C1 (stereo not drawn)	1.5	0.98
COCCn1c(=S)[nH]c2sc3c(c2c1=O)CCCC3	10*	-0.64*
COc1ccc(SCCC(=O)NCc2ccncc2)cc1	1.5	0.32
N#CCC(=O)Nc1ccc(C(=O)NCCc2c[nH]c3ccccc23)cc1	1.1	0.31
CCN(CC)S(=O)(=O)c1cccc(NC(=O)COC(=O)c2cccs2)c1	2.3	0.81
CCCc1nc2c(c(=O)c3ccccc3n2C)c(=O)n1C1CCCCCC1	0.01	-0.42
c1ccc2c(c1)NC1(CCCC1)n1c-2nc2ccccc21	0.23	2
CN1CCN(c2ccc(NC(=S)NC(=O)c3cccc4c(Br)cccc34)cc2)CC1	0.01	0.08
O=C(O)COc1ccc(/C=C/C(=O)c2ccc(C3CCCCC3)cc2)cc1	1.4	0.61
O=C(Cc1ccccc1)Nc1cccc([N+](=O)[O-])c1	0.96	-1.9
CCOC(=O)NC1(C(F)(F)F)NC(=O)N(Cc2ccco2)C1=O (stereo not drawn)	0.11	-0.4
CCOc1ccc(NC(=O)CCSc2ccc3ccccc3n2)cc1	0.36	-0.71
COc1ccc(C2=NN(c3nc4ccccc4s3)C(=O)C2)cc1	2.5	0.08
O=C(NCCCN1CCOCC1)c1cc2c(s1)CSC2	0.56	-2.1
COc1ccc2c(CSc3nc4nc(C)cc(C)n4n3)cc(=O)oc2c1	0.54	0.39
COc1ccc(C(=O)Nc2cccc([N+](=O)[O-])c2)cc1Br	0.95	0.26
CC1CCCC(NC(=O)C2CCN(S(=O)(=O)N3CCOCC3)CC2)C1C (stereo not drawn)	0.1	-0.43
Cc1ccc(-c2nn3c(C)nnc3s2)cc1NC(=O)c1ccc(-c2cccc(Cl)c2)o1	0.36	-0.38
CN(NS(=O)(=O)c1ccc(Cl)cc1)c1ncc(C(F)(F)F)cc1Cl	3.4	0.39
Cc1ccc(NC(=O)Cn2sc3nc(C)cc(C)c3c2=O)c(Cl)c1	0.4	0.02
CCOc1cccc(CN(CC)CC2CCCN(CCc3cccc(OC)c3)C2)c1O (stereo not drawn)	2.4	0.31
CCc1ccc(S(=O)(=O)Nc2ccc(O)c3ccccc23)cc1	4	-1.1
O=C(Nc1cccc2[nH]ncc12)NS(=O)(=O)c1ccccc1	0.9	0.97
COc1cccc(C2C(C(C)=O)=C(C)Nc3ncnn32)c1 (stereo not drawn)	0.83	-0.42
COc1ccc2c(c1)CCNC2Cc1ccc(OC)c(O)c1 (stereo not drawn)	0.5	1.4
COc1ccc(NC(=O)c2c(C)nn(Cc3ccccc3)c2C)cc1S(=O)(=O)N(C)C	0.11	-0.99
CCOC(=O)C(=NCCCN(C)C)NNc1cc(C(F)(F)F)ccc1Cl	0.02	-0.39
O=C(/C=C/c1cccc([N+](=O)[O-])c1)NCc1ccccc1	0.52	-0.14
COc1ccc(Nc2nc(NCc3ccco3)nc(N/N=C/c3ccc(O)cc3)n2)cc1	0.39	-1.8
CCOC(=O)c1ccc(NC(=O)c2sc3nc4n(c(=O)c3c2C)CCC4)cc1	1.3	-0.43
C[C@@H](C(=O)N1CCN(Cc2ccc3c(c2)OCO3)CC1)n1nnc2ccccc2c1=O	0.57	-2.2
CCOC(=O)c1cc(NC(=O)SCC(=O)O)c(C)nc1C	2.4	2.6
CN(C(=O)COc1ccccc1)c1nnc(-c2cccnc2)s1	4.8	0.11
COc1ccc(Nc2ccccc2N)cc1	0.68	-0.6
COc1ccc(/C=N/NC(=O)c2ccc3nc[nH]c3c2)cc1OC	0.07	-1.5

Part of the list above, as labelled records.
> CCOC(=O)c1ccc(NC(=O)c2sc3nc4n(c(=O)c3c2C)CCC4)cc1
  KCNQ2 pot = 1.3	KCNQ2 pot baseline = -0.43

> C[C@@H](C(=O)N1CCN(Cc2ccc3c(c2)OCO3)CC1)n1nnc2ccccc2c1=O
  KCNQ2 pot = 0.57	KCNQ2 pot baseline = -2.2

> CCOC(=O)c1cc(NC(=O)SCC(=O)O)c(C)nc1C
  KCNQ2 pot = 2.4	KCNQ2 pot baseline = 2.6

> CN(C(=O)COc1ccccc1)c1nnc(-c2cccnc2)s1
  KCNQ2 pot = 4.8	KCNQ2 pot baseline = 0.11

Remaining list, next part
SMILES	KCNQ2 pot	KCNQ2 pot baseline
CC1(c2ccccc2Cl)NC(=O)N(CC(=O)NCc2ccco2)C1=O (stereo not drawn)	2.4	-0.06
CN(C)S(=O)(=O)N(CC(=O)Nc1ccccc1F)c1ccccc1	0.77	0
CCOc1ccc2nc(-c3ccccc3)nc(SCC(=O)OC)c2c1	0.24	0.14
Cc1coc2c1c(C)cc1oc(=O)c(CC(=O)NCC(=O)NCC(=O)O)c(C)c12	0.42	-0.1
C/C(N)=C(/C#N)C(=O)CSc1nc2cc(Cl)ccc2c(=O)n1Cc1ccco1	0.31	1.2
O=C(NCCCc1ccccc1)c1ccncc1	0.1	0.84
Cc1nc(S(=O)(=O)Cc2ccc(Cl)cc2)nc2c1CCC2	0.01	1.9
Cc1cc2nc(-c3ccc4c(c3)CCC4)ccn2n1	0.2	-3.1
Nc1nc(Nc2ccccc2F)nc(NCc2ccco2)c1[N+](=O)[O-]	1.2	0.07
CCOC(=O)C1(CCCc2ccccc2)CCN(C(=O)CCC2=NNC(=O)CC2)CC1	0.92	0.67
COc1ccc(O[C@@H]2O[C@H](COC(C)=O)[C@@H](OC(C)=O)[C@H](OC(C)=O)[C@H]2NC(C)=O)cc1	0.03	-0.01
Cc1ccc(-n2cccc2C(=O)NS(=O)(=O)c2ccc(C)cc2)cc1	0.75	0.01
CCCCOc1ccc(-c2ncc(C(=O)OCC)c(N)n2)cc1	0.05	0.27
Cc1cccc(OCCSc2nc3ncnc(N)c3[nH]2)c1	2.8	-1.1
O=C(c1cc2c(s1)-c1ccccc1OC2)N1CCc2ccccc2C1	-5.6	.
COc1ccc(OCc2cc(C(=O)N(C)C(C)c3ccon3)no2)c(Cl)c1 (stereo not drawn)	0.9	-0.06
Cc1ccc(NC(=O)CCC(=O)NCCO)cc1	1.8	-0.05
CCN(CC)S(=O)(=O)c1cccc(NC(=O)COC(=O)c2ccc(Br)o2)c1	0.87	1.4
O=C(C1CCCO1)N1N=C(c2ccc(Br)cc2)CC1c1ccco1 (stereo not drawn)	0.62	-1
